Compound activity (PubChem BioAssay)
Sa helicase inh = inhibitors of S. aureus replicative helicase, primary screen, biochemical, fluorescence unwinding readout. AID 485395, 2010. inhibition, %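 (tested at about 80 µM)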. purified S. aureus helicase, fluorescence unwinding assay; about half of the hits fall short of the stated cut. 120,000 tested, 0.05% active. replicative DNA helicase (DnaC/DnaB), Staphylococcus aureus;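 active = both duplicates at 50% or more, or one of them with a favoured structure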;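 also: 0% = mean of negative control wells and 100% = mean of positive control wells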
MgrA-DNA mod = S. aureus MgrA activity modulators, primary screen, biochemical, S. aureus Newman, fluorescence polarization. inhibition, %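 (about 10 µg/mL by stock and volumes)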. 84,000 tested, 0.13% active. MgrA-DNA binding;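 active = above 50% in either of two replicates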;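 also: 0% = protein plus DNA without compound and 100% = DNA alone without protein; higher means less MgrA bound to DNA so lower polarization; one replicate is shown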
An asterisk follows results filed as active; . = no result given; & = joins results of further samples. Some of the compounds tested (hit frequency here may not be typical).

SMILES	Sa helicase inh	MgrA-DNA mod
COc1cccc([C@H]2Nc3ccc(S(=O)(=O)Nc4ccc(C)c(C)c4)cc3[C@H]3C=CC[C@H]32)c1OC	4.0	2.7
Nc1cccc(-c2nc3ccccc3s2)c1	-41.0	.
COCCCN1C(=O)CC(Nc2ccc(N(C)C)cc2)C1=O (stereo unspecified)	-10.0	.
CN1C(=O)c2ccccc2C(C(=O)NCC2CCCO2)C1c1c[nH]c2ccccc12 (stereo unspecified)	16.0	.
CCOc1ccc(CCNC(=O)C2COc3ccccc3O2)cc1OCC (stereo unspecified)	7.0	.
CCSc1nnc(Cc2cc(=O)[nH]c(=O)[nH]2)n1-c1cccc(C)c1	15.0	-1.1
O=C(O)CSc1nnc(-c2ccc(Cl)cc2Cl)n1Cc1ccco1	17.0	.
CC(C)c1ccc([C@@H]2Nc3ccc(C(=O)O)cc3[C@@H]3C=CC[C@@H]32)cc1	16.0	46.7*
CCC(C)C1Nc2ccc(C(=O)NC3CCCC3)cc2NC1=O (stereo unspecified)	16.0	.
CCOc1nc2sc3c(c2c2ncnn12)CCCC3	10.0	0.1
CC(SC1=NCCS1)C(=O)Nc1nnc(-c2ccc(F)cc2)s1 (stereo unspecified)	17.0	.
Cc1nc(CSc2nc3ccccc3s2)cs1	-2.0	.
Cc1ccc2c(c1)sc(=NC(=O)Cc1cccc3ccccc13)n2C	-18.0	.
N#Cc1nccnc1SCCO	.	-0.4
O=c1[nH][nH]c(=S)n1-c1ccccc1C(F)(F)F	.	3.3
CCN(CC)CCN1C(=O)C(O)=C(C(=O)/C=C/c2ccco2)C1c1ccc(OC)cc1 (stereo unspecified)	1.0	.
CCC(C)NC(=O)[C@@H]1CCCN1S(=O)(=O)c1ccccc1C(F)(F)F (stereo partly specified)	10.0	.
O=C(CN1CCN(Cc2ccccc2)CC1)N1CCCc2c1c(=O)oc1ccc(O)cc21	18.0	.
CCN1CCSc2ccc(C(=O)Nc3ccc(OC)cc3)cc21	20.0	.
Cc1sc(/N=C/N(C)C)c(C(=O)c2ccc(Cl)cc2)c1C	.	-0.9
CC12CC(=O)CC1(C)CC(=O)C2 (stereo unspecified)	.	2.4
Cc1ccc(Cn2nc(C)c3cc(C(=O)OCC(N)=O)sc32)cc1	-9.0	.
NC(=O)COC(=O)c1ccc2ncsc2c1	8.0	.
O=C(NCC1(c2ccccc2)CCCC1)c1ccc(Br)o1	12.0	3.2
O=C(COC(=O)c1cc(-c2ccccc2)nc2ccccc12)NCc1ccccc1	-22.0	1.8
O=C(CCCn1c(=O)c2cccn2c2ccccc21)Nc1ccccc1F	19.0	.
C/C(=C\c1ccco1)C1Nc2cccc3cccc(c23)N1	20.0	.
Cc1ccc(C(=O)NCC(=O)N2CCN(c3ccccc3)CC2)cc1	0.0	-1.4
O=C(Nc1ccc(Cl)cc1Cl)C1C2C3CCC(C3)C12 (stereo unspecified)	9.0	.
CCC(C(=O)NCCc1cc2c(C)ccc(C)c2[nH]c1=O)c1ccccc1 (stereo unspecified)	-12.0	.
Cc1c(C(=O)NCCCn2ccnc2)oc2ccccc12	-13.0	-1.1
Nc1ccc(-c2nc3ccccc3n2CCO)cc1	-24.0	2.5
Cn1c(=O)c2c(nc(SCC(=O)N3CCCC3)n2C)n(C)c1=O	5.0	-0.2
Cc1cc(=O)oc2oc3c(O)c(O)ccc3c12	-24.0	.
CC1CC(C)CN(C(=O)COC(=O)COc2ccc(Br)cc2)C1 (stereo unspecified)	5.0	-1.4
O=C(NCCCN1CCCC1=O)C1CCN(c2ncnc3c2sc2cccc(F)c23)CC1	12.0	.
COC(=O)Cn1cnc2sc(C)c(S(=O)(=O)N3CCC(C)CC3)c2c1=O	13.0	.
COC(=O)C(Cc1c[nH]c2ccccc12)NC(=O)c1cc([N+](=O)[O-])cc([N+](=O)[O-])c1 (stereo unspecified)	.	0.5
CCc1ccccc1NC(=O)CCn1c(=O)sc2ccccc21	18.0	-0.3
CC(=O)Oc1ccc(OC(C)=O)c2c1C1C=CC2CC1	.	-2.5
N#C/C(=C\c1ccc(-c2ccc(F)cc2)o1)c1ccccc1	-19.0	.
CSc1ccccc1NC=C(C#N)C#N	-5.0	.
COC(=O)c1cccc(Cn2c(C)nc3ccccc3c2=O)c1	12.0	4.9
CCc1ccc2nc(N3CCC(C(=O)NCCc4ccccc4)CC3)sc2c1	9.0	0.2
CCNC(=S)Nc1sc2c(c1C(=O)OCC)CC(C)(C)OC2	3.0	1.0
COC(=O)C(Cc1c[nH]c2ccccc12)NS(=O)(=O)c1ccc(Cl)cc1 (stereo unspecified)	-12.0	2.1
COC(=O)C(N)C12CC3CC(CC(C3)C1)C2 (stereo unspecified)	-1.0	.
O=C(CSc1ccccc1)NCc1nc(-c2ccccc2)no1	-2.0	0.0

The closing 4 records of the part before open the next one.
SMILES	Sa helicase inh	MgrA-DNA mod
CCNC(=S)Nc1sc2c(c1C(=O)OCC)CC(C)(C)OC2	3.0	1.0
COC(=O)C(Cc1c[nH]c2ccccc12)NS(=O)(=O)c1ccc(Cl)cc1 (stereo unspecified)	-12.0	2.1
COC(=O)C(N)C12CC3CC(CC(C3)C1)C2 (stereo unspecified)	-1.0	.
O=C(CSc1ccccc1)NCc1nc(-c2ccccc2)no1	-2.0	0.0
Oc1ccccc1C=Nc1ccc(F)cc1	.	-0.6
CCN(CC)CCOC(=O)C(Cc1cccc2ccccc12)CC1CCCO1 (stereo unspecified)	.	-3.5&1.8
CC(OC(=O)c1ccccn1)C(=O)Nc1ccc(C(N)=O)cc1 (stereo unspecified)	1.0	.
CC(C)(C)c1cc(C(c2ccc(O)cc2)N2CCOCC2)cc(C(C)(C)C)c1O (stereo unspecified)	15.0	6.1
COc1ccc(/C=[N+](\C)[O-])cc1OC	3.0	.
CCOC(=O)c1cn(CC(=O)Nc2ccccc2)nn1	10.0	-2.2
O=C(Nc1ccccc1)OC1CCS(=O)(=O)C1 (stereo unspecified)	-2.0	1.9
Nc1nc(SCC(=O)C23CC4CC(CC(C4)C2)C3)nc(-c2ccncc2)n1	-11.0	.
CN1C(=O)/C(=C\c2ccc(C(=O)NCc3ccco3)cc2)SC1=S	8.0	.
COc1ccc(CC(=O)OCC(=O)N2CCCC(C)C2)cc1 (stereo unspecified)	-11.0	.
Nc1nc(=S)nc(C2CCC2)[nH]1	-7.0	.
CSc1nc2c(ccc3ccccc32)o1	9.0	.
Cc1cc(C(=O)CSc2nc(N)c(C#N)cc2C#N)c(C)n1Cc1ccc(F)cc1	-9.0	.
Cc1ccc(C)n1-c1ccc(C(=O)O)cc1	.	99.5*
COc1ccc(CNC(=O)CCn2c(=O)c3sccc3n(Cc3cc(C)ccc3C)c2=O)cc1	11.0	0.9
CSc1ccccc1C(=O)NCc1n[nH]c(=O)c2ccccc12	6.0	.
Cc1cccn2c(=O)c(/C=N/NCCC#N)c(Sc3nc4ccccc4s3)nc12	-2.0	.
O=C(CSc1nnc(C2CCCCC2)o1)c1ccc[nH]1	-9.0	.
O=c1/c(=C/c2ccc(O)c(Cl)c2)sc2nc3ccccc3n12	-77.0	.
O=C(Cc1ccccc1)Nc1nc2nc(-c3ccccc3)cc(=O)n2[nH]1	22.0	.
CS(=O)(=O)Cc1nc2ccccc2[nH]1	11.0	.
COc1ccc(C(=O)CN2CCN(S(=O)(=O)c3ccc(C(C)C)cc3)CC2)cc1OC	-15.0	.
O=c1c2oc3cccc4c3n(c=2c(=O)c2ccccc12)CCC4	13.0	7.1
CCOC(=O)CN1CC23C=CC(O2)C(C(=O)NCc2ccccc2OC)C3C1=O (stereo unspecified)	-31.0	.

Some of these compounds in order of count of non-hydrogen atoms, descending.
SMILES	Sa helicase inh	MgrA-DNA mod
COc1ccc(CNC(=O)CCn2c(=O)c3sccc3n(Cc3cc(C)ccc3C)c2=O)cc1	11.0	0.9
Cc1cccn2c(=O)c(/C=N/NCCC#N)c(Sc3nc4ccccc4s3)nc12	-2.0	.
O=C(CSc1nnc(C2CCCCC2)o1)c1ccc[nH]1	-9.0	.

Later entries:
SMILES	Sa helicase inh	MgrA-DNA mod
CCC(C)NC(=O)C1c2ccccc2C(=O)N1Cc1ccc(F)cc1 (stereo unspecified)	-13.0	.
CCc1nnc(NC(=O)C2=CCN(S(=O)(=O)c3ccc(F)cc3)CC2)s1	5.0	-0.2
CCOC(=O)C1=C(C)N=c2s/c(=C3\C(=O)N(CC(N)=O)c4ccccc43)c(=O)n2C1c1ccccc1 (stereo unspecified)	.	-1.4
COc1ccc2nc(SCc3cnc(C)nc3N)[nH]c2c1	-11.0	-0.1
COc1ccc(CCNC(=O)/C=C/c2ccc(F)cc2)cc1OC	-10.0	-0.2
COC(=O)c1[nH]c2cscc2c(=O)c1C(=O)OC	.	-1.4
N=C(N)SCC1CN=C(Nc2ccccc2)S1 (stereo unspecified)	7.0	.
O=C(NC1CC1)c1cc2ccccc2o1	-2.0	0.7
CC(O)Cc1nsc(NC(=O)c2cccs2)n1 (stereo unspecified)	19.0	-1.5
Cc1ccc(-c2cc3c4c(C)n(C)c(C)c4c(C)nn3c2)o1	-23.0	.
NC(=O)COC(=O)c1ccc(S(=O)(=O)N2CCCC2)cc1	-13.0	.
CCc1cc2c(=O)c(-c3csc(C)n3)coc2cc1O	21.0	.
C=C(C)C(=O)Oc1ccc(NC(C)=O)cc1	4.0	-1.8
Cc1nc2n(CCN3CCOCC3)c3ccccc3n2n1	-1.0	-1.3
Cn1c(=O)cc(SCC(=O)NCCCN2CCOCC2)c2ccccc21	-4.0	.
COc1ccc(-c2noc(N(C)CC(=O)NCCC3=CCCCC3)n2)cc1	-1.0	.
Cn1cc(C(=O)c2ccccc2O)cc1-c1nc2ccccc2s1	-10.0	.
COc1ccc(OC)c(NC(=O)C2C3CC/C=C\CC/C=C/CCC32)c1 (stereo unspecified)	-12.0	0.6
CC(C)(C)c1ccc(OCC(=O)Nc2cccc3nsnc23)cc1	11.0	2.0
CCOC(=O)CC1C(=O)NCCN1Cc1ccco1 (stereo unspecified)	-1.0	.
CSc1ncccc1C(=O)OCC(=O)Nc1ccc(N2CCOCC2)cc1	16.0	.
CCOC(=O)Cc1csc(-c2ccc(Cl)cc2)n1	.	-0.9
Cc1ccc(/C(N)=N\O)n1C	2.0	4.3
CNCC(=O)Nc1ccc(OC)cc1	-6.0	.
CC(=O)c1ccc(-c2ccccc2OC(F)(F)F)o1	.	-1.0
COc1ccc(C(=O)NC(C)c2nnc(SCC(=O)Nc3nc(C)c(C)s3)n2C)cc1 (stereo unspecified)	4.0	-4.0
CC(C(=O)Nc1ccon1)N1C(=O)c2ccccc2S1(=O)=O (stereo unspecified)	1.0	.
CCOc1ccc(S(=O)(=O)N(C)CC(=O)N2CCOCC2)cc1	-14.0	2.0
O=C1C(=O)N(CCO)C(c2ccccc2)/C1=C(/O)c1ccccc1 (stereo unspecified)	11.0	.
COC(=O)C1(C(F)(F)F)N=C(N2CCCCC2)OC(N2CCCCC2)=N1	29.0	.
CCC(=O)NCCSc1c(-c2ccc(OC)cc2)[nH]c2ccccc12	-12.0	.
CSc1nc2ccc(NS(=O)(=O)c3ccc(NC(C)=O)cc3)cc2s1	.	-0.3
CCn1nc(C)c(CCNC(=O)c2ccc(NC(=O)C3=CSCCO3)cc2)c1C	11.0	.
Cc1ccccc1OCCn1cc(/C=C(\C#N)C(=O)NC2CC2)c2ccccc21	17.0	-0.7
O=C(NCc1cccnc1)c1cc(-c2ccccc2F)no1	10.0	.
CCCSc1ccc(N)nc1	-1.0	2.4

One compound at a time (already shown).
O=C1C(=O)N(CCO)C(c2ccccc2)/C1=C(/O)c1ccccc1 (stereo unspecified) is listed with Sa helicase inh: 11.0; MgrA-DNA mod: .
O=C(NCc1cccnc1)c1cc(-c2ccccc2F)no1 is listed with Sa helicase inh: 10.0; MgrA-DNA mod: .

(cont.)
SMILES	Sa helicase inh	MgrA-DNA mod
CC(C)N(CCc1ccncc1)C(=O)Nc1ccc(Cl)c(Cl)c1	-6.0	.
CCc1cccc(NC(=O)c2cc3cc4cc(OC)ccc4nc3s2)c1	8.0	0.3
Cc1ccc(-c2c(C(=O)N(CC(C)C)CC(C)C)oc(=O)c3ccccc23)cc1	7.0	-0.1
CCN(Cc1ccccc1)C(=O)Cn1c(=O)cc(C)c2c(C)nn(C)c21	9.0	.
Cc1ccc(S(=O)(=O)N2CCN(Cc3ccccc3)CC2)cc1	.	2.2
NC(=O)c1cccc(S(=O)(=O)N2CCCCC2)c1	8.0	-0.3
CN1CCN(n2c(-c3ccc(Cl)cc3)csc2=Nc2ccccc2)CC1	-12.0	1.4
Cc1n[nH]c(C)c1CCc1nc2c3ccccc3nc(NCc3ccccc3)n2n1	9.0	0.2
O=C(CCc1nc2ccccc2o1)Nc1ccccc1C(=O)NC1CCCC1	-6.0	.
Cc1ccc(-n2c(C)cc(/C=N/NC3CCS(=O)(=O)C3)c2C)cc1 (stereo unspecified)	-251.0	.
Cc1ccc(Cc2cnc(NC(=O)CCN3C(=O)/C(=C/c4ccc(F)cc4)SC3=S)s2)cc1	.	-1.2
OCCCc1cn(-c2ccccc2)c2ccccc12	5.0	-2.0
N#Cc1c(NC(=O)COC(=O)c2ccccc2)oc(-c2ccccc2)c1-c1ccccc1	-1.0	.
O=C(CCCN1C(=O)/C(=C/c2ccccc2)SC1=S)N1CCOCC1	-13.0	.
O=C(CC(=O)N=Nc1c(O)[nH]c2ccccc12)N=Nc1c(O)[nH]c2ccccc12	-16.0	.
CC1(C)S[C@@H]2C(N3C(=O)[C@@H](c4ccccc4)NC3(C)C)C(=O)N2[C@H]1C(=O)O (stereo partly specified)	.	6.7
O=c1c2ccccc2[nH]c(=S)n1CC1CCCC1	14.0	5.2
COc1cccc(-c2cc(C(F)(F)F)n3ncc(C(=O)NC4CCCC4)c3n2)c1	-3.0	0.6
CSc1nccc(-c2cccnc2)n1	.	0.0
O=C(NCCc1ccccc1)c1ccco1	.	-2.3
Fc1ccc(CSc2ncnc3c2oc2ccccc23)cc1	-22.0	.
O=C(CC(Sc1ccccc1)c1ccc2c(c1)OCO2)c1ccco1 (stereo unspecified)	7.0	.
CCCCn1c(COc2cc(C)cc(C)c2)nc2cc(S(N)(=O)=O)ccc21	6.0	.
